ClpP mod = qHTS Assay for Activators of ClpP. ATP-dependent Clp protease proteolytic subunit (Bacillus subtilis (strain 168)), P80244. purified B. subtilis ClpP, FRET peptide cleavage, 20 min. Potency, µM (series often up to 57.5 µM), for inactives: at the top dose activity change, negative = active. 1.9% of 340,000 active. AID 651965, 2013; active = well fitted falling curve with a large enough effect; inconclusive = small, poorly fitted or top-dose-only effect; inactive = no such curve, though single readings can be large or run the other way; also: potency is read from the fitted curve at half-maximal effect; the source files actives as falling curves though it sought activators and does not explain the sign; nearly all actives have a fitted effect of over 65% in size; many hits overshoot -100%
Target sequence (P80244 whole entry, looked up): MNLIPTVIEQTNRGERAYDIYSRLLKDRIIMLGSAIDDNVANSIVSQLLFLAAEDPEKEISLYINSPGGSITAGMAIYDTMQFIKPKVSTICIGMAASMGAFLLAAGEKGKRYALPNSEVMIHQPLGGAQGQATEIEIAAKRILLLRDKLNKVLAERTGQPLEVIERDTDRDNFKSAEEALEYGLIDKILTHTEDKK
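FRET quenching reversal measured ClpP activation: 10 microg/mL B. subtilis ClpP at pH 8 with the FRET-FV decapeptide, read at 430 nm after 320 nm excitation. The 20-min minus 0-min signal was scaled between DMSO/no-enzyme wells and ADEP (5.8 microM final).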
TRPML1 inh = blocks the human TRPML1 channel; Q9GZU1; TRPML1-inducible cells, Ca2+ dye fluorescence, FDSS; active compounds read low; inhibition of EC80 agonist-evoked calcium signal; activity change, negative = inhibition, % (test concentration not listed); 0.02% of 390,000 active; AID 624415; in the data active means activity change below about -50%; inconclusive means about -30% to -50%; inactive means above about -30%;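 also: stimulus is agonist 54-4 at its EC80 concentration; % is scaled to controls: 0 for no effect and ±100 for the full control effect; compound concentration not given in the record; the text of the record puts the active cut at -80%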
Target sequence (Q9GZU1 whole entry, looked up): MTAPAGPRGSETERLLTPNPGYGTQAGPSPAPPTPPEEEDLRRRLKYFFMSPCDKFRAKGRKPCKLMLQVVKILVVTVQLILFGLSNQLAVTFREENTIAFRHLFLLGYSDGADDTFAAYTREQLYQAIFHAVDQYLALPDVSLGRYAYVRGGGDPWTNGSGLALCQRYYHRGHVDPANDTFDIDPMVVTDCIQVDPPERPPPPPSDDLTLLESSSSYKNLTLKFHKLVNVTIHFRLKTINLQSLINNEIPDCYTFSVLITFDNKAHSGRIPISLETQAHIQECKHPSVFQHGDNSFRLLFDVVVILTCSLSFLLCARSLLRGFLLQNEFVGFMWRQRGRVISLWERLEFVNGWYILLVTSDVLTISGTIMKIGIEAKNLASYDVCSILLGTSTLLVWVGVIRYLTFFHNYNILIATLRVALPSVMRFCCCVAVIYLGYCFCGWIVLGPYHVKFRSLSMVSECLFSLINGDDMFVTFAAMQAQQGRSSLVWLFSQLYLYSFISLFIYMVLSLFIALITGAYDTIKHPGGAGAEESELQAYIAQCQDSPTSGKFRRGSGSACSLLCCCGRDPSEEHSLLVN
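Tet-induced TRPML1-DL cells loaded with Ca8 no-wash calcium dye were read kinetically on FDSS. Compound addition was followed by EC80 agonist 54-4 (4 uM final); inhibition was read over 110 s.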
TRPV1 potentiator = enhances activation of the human vanilloid receptor TRPV1; 0.02% of 320,000 active; Q8NER1; TRPV1-expressing cells, Fluo-8 calcium influx, capsaicin EC20 potentiation; host cell line not named in the record; control for the full effect not named in the record; potentiation, % at 8.33 µM; active means potentiation above 80%; inconclusive means 30% to 80%; inactive means below 30%; also: 0% is about no effect
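TRPV1-expressing cells were cultured overnight at 35.5C and loaded with Fluo-8 calcium dye for 40 to 90 min at room temperature. After a 10 s baseline, compound was added and calcium influx was read kinetically for 3 min (ex 480/em 520 nm).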
TRPML1 agonist = activates the human TRPML1 channel | Q9GZU1 | TRPML1-expressing cells, Ca2+ dye fluorescence, FDSS; host cell line not named in the record; reference of the full effect not given here | activation, % (concentration not given with the values) | 0.12% of 410,000 active | AID 624414; in the data active = activation above about 50%; inconclusive = about 30% to 50%; inactive = below about 30%; also: 0% is about no effect; the text of the record puts the active cut at 80%
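Cells: TRPML1-DL, 1X Tet inducer, ~16 h at 37 degrees C/5% CO2. Dye: ABD Ca8 no-wash + quencher, 45-90 min RT. Read: 10 s baseline, compound add, 110 s agonist phase; 54-4 EC80 (4uM final), 110 s antagonist phase.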
Sfp PPTase inh = Sfp phosphopantetheinyl transferase inhibition. Biochemical Sfp PPTase activity, qHTS. AID 1490. 3.5% of 310,000 active. Potency, µM, inactives show max response, negative = inhibition, usual class: inhibitors. Q9F4F7; active = well fitted inhibition curve with a large enough effect; inconclusive = small, poorly fitted or top-dose-only effect, or another doubt; inactive = no such curve, though single readings can be large or run the other way;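 also: the enzyme is Sfp with the accession as filed and its product quenches rhodamine fluorescence; potency is read from the fitted curve at half-maximal effect; 0% = enzyme reaction without inhibitor and -100% = no enzyme wells; top concentration of the series not given in the record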
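Fluorescence-quenching assay: 15 nM Sfp-PPTase preincubated 15 min at room temperature with compound, then 5 uM rhodamine-CoA and 12.5 uM BHQ-2-labelled YbbR peptide added. Fluorescence (ex 525/em 598 nm) read at start and after 30 min; difference gives rate.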
Menin-MLL FL inh = inhibitors of human menin-MLL interaction, wild-type MLL peptide. Fluorescence polarization, fluorescein-MLL peptide displacement from menin. FP activity change, % at 61.4 µM. 290,000 tested, under 10 active. AID 1766; inconclusive = falling polarisation curve, or a change in total fluorescence; inactive = total fluorescence flat and polarisation flat or rising; no compound was filed as active; the % refers to the polarisation; negative = inhibition;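 also: % of control where 0% means no effect; inhibitors lower the polarisation; unlabelled MLL peptide was the positive control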
PINK1 modulator = modulators of PINK1 expression. PINK1 immunofluorescence, high-content cytometry, 24 h. Potency, µM (top dose mostly 76.6 µM), without a hit: at the highest dose activation (PINK1 increase), most hits filed as activators. 0.2% of 410,000 active. AID 624263; active = well fitted activation curve with a large enough effect; inconclusive = small, poorly fitted or top-dose-only effect; inactive = flat fitted curve, though single readings scatter; cell line not stated here;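 also: potency is read from the fitted curve at half-maximal effect; % of control where 0% means no effect; nearly all actives have a fitted effect of over 65% in size; a mitochondrial uncoupler was the plate control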
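Readout is PINK1 immunofluorescence, quantified alongside mitochondrial, cell and nuclear markers by laser-scanning microplate cytometry. Cells from a stable line were exposed to compound titrations (5 concentrations) for 24 hours, with CCCP controls.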
* = called active by the depositor; ? = inconclusive; · = not tested or not shown; [ ] = another dose, or the depositor's remark. Random draw from the library; overall some 4.4% were active at least once.

SMILES	ClpP mod	TRPML1 inh	TRPV1 potentiator	TRPML1 agonist	Sfp PPTase inh	Menin-MLL FL inh	PINK1 modulator
Cc1onc(-c2ccccc2)c1C(=O)Nc1ccc(Cl)c(S(=O)(=O)N2CCOCC2)c1	0.3%	-1.9	?	0.3	·	·	0.5%
O=c1cc(CSc2ncn[nH]2)[nH]c2c(Cl)cccc12	-0.1%	-0.6	·	4.2	·	·	-1.0%
COc1ccccc1N1CC(C(=O)Nc2ccc(S(=O)(=O)N3CCOCC3)cc2)CC1=O (configuration not stated)	1.4%	2.8	0.4	-0.7	22.4%	2.5	-0.9%
CC(=O)NC(c1ccccc1)c1nc(-c2csc3ccccc23)cs1 (configuration not stated)	0.4%	·	·	3.2	·	·	?
CCOc1ccc(C2/C(=C(\O)c3ccc4c(c3)OCCO4)C(=O)C(=O)N2Cc2cccnc2)cc1OCC (configuration not stated)	·	0.0	3.9	0.9	-13.1%	-3.7	1.8%
CCc1ccc(OCCSc2nc3ccccc3n2CC(=O)N2CCCCC2)cc1	-1.0%	26.8	·	2.4	·	·	8.3%
COc1ccc(CNc2nc(-c3ccc(Cl)cc3)nn2S(=O)(=O)c2ccc(C)cc2)cc1	2.8%	3.5	·	3.7	·	·	2.9%
COC(=O)c1ccc(CN2CCc3ccc(NC(=O)c4ccncc4)cc3C2)cc1	-1.0%	28.5	8.2	0.4	15.9%	·	0.5%
CCOC(=O)N1CCC(N2Cc3cccc(C(=O)N4CCN(C5CCCCC5)CC4)c3C2=O)CC1	0.1%	3.8	4.3	-0.5	9.5%	1.4	3.9%
Cc1ccccc1OCC(=O)NCCC1=CCCCC1	1.4%	-17.3	-15.4	3.5	?	0.3	7.9%
Cc1n[nH]c(=S)n(/N=C/c2ccccn2)c1=O	0.7%	7.3	-6.7	-0.4	50.1µM*	-0.2	-1.0%
CCOc1ccc(CCNC(=O)c2cnc3c(-c4ccccc4)c(C)nn3c2C)cc1OCC	0.1%	-14.6	·	2.5	·	·	0.5%
Cc1cc(C(=O)Nc2ccccc2[N+](=O)[O-])cs1	1.6%	-1.9	-7.3	-0.6	16.0%	·	-0.7%
Cc1cc(NC(=O)c2cc(S(=O)(=O)N3CCCCC3)ccc2C)n(-c2ccccn2)n1	-10.8%	-7.2	-16.2	1.3	1.5%	-0.1	1.5%
CCC(c1nnc(SCC(=O)N(C)c2ccccc2)n1Cc1ccccc1)N(C)C (configuration not stated)	-2.0%	-5.5	·	-0.4	·	·	0.3%
O=C(NCCc1ccccc1)c1ccccc1Cl	-2.6%	-7.2	-35.8	-1.1	16.3%	-3.5	0.1%
COc1ccc(CN(C#N)c2nc(SC)nc(N(C)C)n2)cc1	2.4%	-1.0	-4.4	0.7	-15.5%	1.0	10.1%
Fc1ccc(-c2cc(-c3ccccc3)c3c(n2)-c2ccccc2OC3)cc1	4.1%	8.9	·	0.2	·	·	3.2%
CCOC(=O)C1C(c2ccc(O)c(OCC)c2)NC(=S)NC1(O)C(F)(F)F (configuration not stated)	-1.6%	-4.3	8.3	-0.5	-17.5%	1.4	0.9%
CC12CCC(C/C1=N\OC(=O)c1c(F)cccc1F)C2(C)C (configuration not stated)	·	4.2	-0.3	1.6	5.2%	3.0	-0.8%
CSc1nc(-c2ccccc2)[nH]c(=S)c1C(C)=O	-0.8%	-17.8	-6.8	0.0	16.9%	0.0	1.0%
Cc1cc(C)n(CC(O)Cn2c3ccccc3c3ccccc32)n1 (configuration not stated)	-16.7%	47.3	-2.9	0.8	50.1µM*	0.7	0.3%
CC(C)NC(=O)CN1CCN(C(=O)CCl)CC1	-1.9%	-6.0	-0.3	-0.9	-14.8%	4.6	-1.3%
Cc1cc2oc3ccc(NCCCN4CCOCC4)cc3c(=O)c2cc1C	0.2%	1.0	·	1.6	·	·	0.2%
COc1cccc(CN2CCC2(C)C(=O)Nc2ccc3c(c2)CCN3C(C)=O)c1F (configuration not stated)	0.3%	·	·	-0.8	·	·	2.5%

The list continues:
SMILES	ClpP mod	TRPML1 inh	TRPV1 potentiator	TRPML1 agonist	Sfp PPTase inh	Menin-MLL FL inh	PINK1 modulator
COc1ccc(-c2nn(-c3ccccc3)cc2/C=N/Nc2ccc(Cl)c(C(=O)O)c2)cc1OC	-20.9%	20.2	9.0	0.3	5.8%	6.6	0.7%
CCOC(=O)c1ccc(N=c2sc(C(=O)OC)cc(=O)n2Cc2ccco2)cc1	-0.5%	-4.6	1.7	-0.1	-19.0%	0.8	0.1%
Cc1ccc(S(=O)(=O)N2CCOCC2)cc1C(=O)Nc1ccccc1F	-0.5%	?	2.5	1.0	9.8%	-3.5	-2.3%
COc1ccc(-n2c(Cc3cc(=O)[nH]c(=O)[nH]3)nnc2SCC(=O)Nc2cc(C(F)(F)F)ccc2Cl)cc1	·	-7.1	16.1	0.1	9.4%	0.6	-0.6%
COC(=O)c1sc2[nH]c(=S)n(N)c(=O)c2c1C	-5.5%	-14.4	-11.7	0.0	?	-2.1	0.7%
CCOc1ccc(CCNC(=O)CN2N=C(c3ccccc3)CCC2=O)cc1OCC	1.5%	-7.6	·	2.5	·	·	-0.3%
Cc1cccc(CSc2nc3c(c(=O)[nH]2)C(c2cccc(O)c2)CC(=O)N3)c1 (configuration not stated)	-5.8%	?	·	19.6	·	·	1.7%
CCC/C(O)=C1\C(=O)CC(C)(C)CC1=Nc1ccccc1O	·	8.2	-0.6	0.9	8.6%	-0.1	-1.1%
Cc1cc2nnc(SCC(=O)N3CCCCCC3)n2c(N)n1	-0.3%	8.5	1.0	0.3	3.6%	-1.6	0.8%
O=C(OCCN1C(=O)c2ccccc2C1=O)Oc1ccccc1	-2.2%	-6.4	?	1.1	-4.3%	·	-0.1%
Cc1[nH]n(-c2ccc(Br)cc2)c(=O)c1C=Nc1ccc(S(=O)(=O)Nc2nccs2)cc1	2.6%	-10.5	12.1	0.6	-14.0%	2.4	3.5%
CC(=O)NCC(=O)N(Cc1ccco1)C1(C(=O)NC2CCCC2)CCCCC1	·	15.2	85.2*	1.3	10.8%	0.2	1.5%
Cc1ccc(NC(=O)CSc2n[nH]c(=O)n2C2CC2)cc1S(=O)(=O)N1CCOCC1	-2.4%	-3.0	2.7	-0.5	9.4%	0.5	-1.2%
Cc1ccc(OCC(=O)NNC(=S)NC(=O)C2CCCCC2)c(C)c1	0.9%	26.9	1.5	1.0	29.7%	·	3.4%
NCCCC[C@H]1CN=C(N)N1CCC12CC3CC(CC(C3)C1)C2	0.9%	0.4	-19.7	0.1	7.6%	-1.4	0.7%
Cc1ccc(/C=N/NC(=O)C(C)Oc2cccc3ccccc23)o1 (configuration not stated)	0.1%	-4.7	3.1	1.9	56.2µM*	6.7	1.3%
Cc1ccc(N(CC(O)CN2C(=O)NC(C)(C)C2=O)S(=O)(=O)c2ccc(C)cc2)cc1 (configuration not stated)	·	1.1	11.3	0.4	3.7%	-3.0	-1.3%
CSc1nc2ccc(NS(=O)(=O)c3ccc(Br)s3)cc2s1	-1.4%	4.7	-0.2	5.5	23.8%	-2.3	1.6%
CC(=O)C1=C(O)C(=O)N(c2ccc(Br)cc2)C1c1ccc([N+](=O)[O-])cc1 (configuration not stated)	2.1%	7.2	6.1	-0.4	13.0%	0.8	1.4%
CC1=C(C(=O)NCc2ccccc2Cl)C2(CCCCCC2)OC1=O	1.0%	5.9	·	0.9	·	·	-0.1%
Oc1ccc(Br)cc1-c1n[nH]c(=S)n1Cc1ccccc1	-15.7%	-18.5	3.2	0.6	-15.2%	-2.2	-0.4%
N#Cc1c(N)nc(SC2CCCCC2=O)c(C#N)c1-c1ccco1 (configuration not stated)	-20.2%	-6.1	·	2.1	·	·	-0.4%
CCN(Cc1ccccc1)C(=O)c1ccc(CNS(=O)(=O)c2ccc(C)cc2)cc1	-3.1%	8.5	9.1	3.2	-4.4%	2.6	-1.3%
COc1ccc(C2/C=C\CN(C(=O)c3ccccc3)C(Cc3ccccc3)C(=O)N2Cc2ccc(F)cc2)cc1 (configuration not stated)	·	45.9	·	2.0	-7.3%	10.1	·
CCc1nnc(NC(=O)c2n[nH]c(=O)c3ccccc23)s1	1.2%	-23.5	5.3	-0.6	1.0%	1.5	-0.7%

Going on with the list.
SMILES	ClpP mod	TRPML1 inh	TRPV1 potentiator	TRPML1 agonist	Sfp PPTase inh	Menin-MLL FL inh	PINK1 modulator
O=C(Nc1ccccn1)c1ccc2c(c1)OCCO2	·	-5.6	-9.3	-0.3	4.0%	-4.5	0.8%
COC(=O)c1cc(S(=O)(=O)NC2CCN(Cc3ccccc3)CC2)cn1C	1.7%	-8.7	?	0.5	-1.5%	-2.5	-1.4%
O=C(Nc1nnc(-c2ccc(F)cc2)o1)c1cccc([N+](=O)[O-])c1	·	-5.6	-3.0	17.5	13.8%	-3.4	-0.9%
Cc1cccc(C(=O)N/N=C/c2ccncc2)c1	-0.6%	-7.5	-19.7	0.0	16.7%	4.4	·
CCOC(=O)Cc1csc(NC(=O)COc2ccc(N(C)S(=O)(=O)c3ccc(C)cc3)cc2)n1	1.5%	-2.2	6.0	1.8	14.6%	0.7	-1.8%
FC(F)(F)c1ccc(CN2CCCCCC2)cc1	-1.0%	-5.5	-13.6	0.6	-6.9%	-1.8	·
O=C(CSc1ncccn1)NC(=O)c1ccccc1	·	8.4	22.6	-0.2	3.5%	-0.5	4.7%
Cc1ccc(/C(N)=N/OC(=O)CN(C)S(=O)(=O)c2ccc(C)cc2)cc1	-1.7%	28.5	1.5	1.5	12.4%	·	0.7%
CCOc1ccc(Cn2cc(F)c(=O)[nH]c2=O)cc1	-0.7%	-4.5	14.3	0.9	16.0%	2.7	0.7%
CCOC(=O)c1c(C)[nH]c(C(=O)COC(=O)C2CC(=O)N(Cc3ccccc3)C2)c1C (configuration not stated)	-0.3%	-5.7	19.6	0.4	15.7%	3.2	-2.7%
Cc1ccc(C(=O)Nc2ccc(Nc3ccccc3)cc2)cc1C	·	2.3	·	6.3	·	·	-0.4%
Cc1ccc(C(=O)OCc2cc3ccccc3[nH]c2=O)cc1	?	4.5	4.0	1.3	11.7%	3.0	9.4%[38.3 µM]
Nc1nccc(NCCSCc2ccccc2)n1	·	-2.9	·	0.5	·	·	-1.1%
O=C(NNc1ncccc1-n1cccc1)c1ccc(Cl)cc1	-3.6%	16.0	-5.5	-0.6	-25.1%	1.9	-0.2%
O=C1Nc2ccccc2C1=Nc1ccc(S(=O)(=O)Nc2nccs2)cc1	0.7%	-9.0	-23.5	-0.9	9.3%	6.5	-1.2%
COc1ccccc1-c1nnc(SCc2nc3ccccc3s2)n1C	-3.3%	61.6	7.1	-0.6	-7.2%	7.6	3.1%[38.3 µM]
